HPGD inh – blocks human HPGD enzyme activity; P15428; purified HPGD, NADH fluorescence kinetic, PGE2 substrate; Potency, µM, without a hit: at the highest dose activity change, negative = inhibition, actives largely listed as inhibitors; 4.3% of 150,000 active; AID 894; active = well fitted inhibition curve with a large enough effect (not every such curve was filed as active); inconclusive = small, poorly fitted or top-dose-only effect, or another doubt; inactive = no such curve, though single readings can be large or run the other way;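 further: top concentration of the series not given in the record; plate controls included wells without enzyme; inactives centre near -10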
Target sequence (P15428 whole entry, looked up): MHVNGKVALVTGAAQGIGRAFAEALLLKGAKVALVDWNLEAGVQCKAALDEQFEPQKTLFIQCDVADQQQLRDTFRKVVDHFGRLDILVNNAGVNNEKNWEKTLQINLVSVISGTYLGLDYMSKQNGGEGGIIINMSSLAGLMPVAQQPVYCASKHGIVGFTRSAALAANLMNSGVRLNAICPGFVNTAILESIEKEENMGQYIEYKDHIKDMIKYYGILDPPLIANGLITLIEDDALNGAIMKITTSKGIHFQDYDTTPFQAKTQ
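20 nM HPGD preincubated 15 min at room temperature with compound in 50 mM Tris-HCl pH 8, 0.01% Tween 20. Started with 1 mM NAD+ and 30 uM prostaglandin E2; NADH fluorescence (360/450 nm) read 5 times over 30-s intervals, last minus first.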
Starred values were filed as active, the others as inactive; u = inconclusive. On the % scale 0 is the no-effect control and ±100 the full control effect; potency means the concentration at half of the fitted maximal effect.

Structure,HPGD inh
CC1CCCCN1C(=O)C(Cc1ccccc1)N1C(=O)C2CCCCC2C1=O (stereo not drawn),0%
CCC(=O)N(Cc1ccco1)C1CC(=O)N(c2ccccc2)C1=O (stereo not drawn),-16%
CCCCc1cc2c(cn1)=C(OC(=O)c1cnc3ccccc3n1)C(C)(OC(=O)CC)C(=O)C=2 (stereo not drawn),-8%
COc1cc2ccccc2cc1C(=O)N1CCN(C)CC1,u
CCCOC1OC(=O)c2c1ccc(OC)c2OC (stereo not drawn),-30%
CC(C)(C)c1ccc(OCC(=O)O)c(Cl)c1,-6%
NC(=O)[C@@H]1CCCNc2c(F)cc([N+](=O)[O-])cc2C(=O)N[C@@H](CO)C(=O)N[C@@H](Cc2ccc(O)cc2)C(=O)N1,-7%
C[C@@H]1CCC[C@H](C)N1,-2%
Cc1ccc(NC(=O)CSc2nnc(-c3ccc(S(=O)(=O)N4CCCC4)cc3)o2)cc1C,-10%
CCOC(=O)Cc1csc(NC(=S)NC(=O)c2ccccc2Br)n1,u
CCc1cccc2c(/C=N/NC(=O)c3cccc(S(=O)(=O)Nc4ccccc4Cl)c3)c[nH]c12,-15%
CCOCCCNC(=O)c1cc(C)nn1-c1ccccc1,-4%
O=C(Nc1ccc(Cl)cc1C(=O)O)c1ccc2c(c1)C(=O)N(Cc1ccco1)C2=O,u
CCCN1C(=O)C2C(C(=O)Nc3cccc(OC)c3)C3C=CC2(O3)C1C(=O)NC1CCCCC1 (stereo not drawn),1%
O=C(c1cccs1)N1CCN(S(=O)(=O)N2CCCCC2)CC1,-9%
O=C(O)c1ccc(NS(=O)(=O)c2ccsc2C(=O)O)c(O)c1,-11%
CC1(C)O[C@H]2C[C@@H]3[C@H]4CCC5=CC(=O)CC[C@@]5(C)[C@]4(F)[C@@H](O)C[C@@]3(C)[C@@]2(C(=O)CCl)O1,-5%
COc1nc(NC(C)(C)C)nc(Oc2ccc(=O)n(C)n2)n1,-15%
O=S(=O)(NCCSc1ccc(Cl)cc1)c1ccc2c(c1)OCCO2,-16%
CN(CCO)Cc1ncccc1O,-10%
CN(C(=S)NC(=O)CCCOc1ccc(Cl)cc1Cl)c1ccccc1,11µM*
COc1ccc(S(=O)(=O)N2CCN(C(=O)NC3CCCCC3)CC2)cc1OC,-13%
CC(C)NC(=S)N/N=C1\CCCCC1C1CCCCC1 (stereo not drawn),u
COCCOC(=O)C1=C(C)OC(N)=C(C#N)C1c1ccc2c(c1)OCO2 (stereo not drawn),32µM*
COc1cc(S(=O)(=O)N2CCC(C(N)=O)CC2)c(C)cc1C,-12%
CC(C)CC(=O)NC(=S)N(Cc1ccccc1)Cc1ccccc1,-5%
COC(=O)c1ccc(Cl)c(NC(=O)NC2CCCCC2)c1,-11%
O=C(Nc1ccc(-c2noc(CCc3ccccc3)n2)cc1)c1ccco1,25µM*
Cc1onc(-c2ccccc2Cl)c1C(=O)Nc1ccc(-n2nncc2C(C)(C)C)cc1,-2%
c1cncc(-c2nc(NCCN3CCOCC3)c3ccccc3n2)c1,-8%
CC1CCCN(c2nc3ccccc3nc2C(C#N)S(=O)(=O)c2ccccc2)C1 (stereo not drawn),-8%
CC(C)OC(=O)CN1CCN(C2c3ccccc3-c3ccccc32)CC1,-7%
O=C(NC1CCCCC1)[C@H](CSCc1ccccc1)N1Cc2ccccc2C1=O,-15%
Cc1onc(-c2ccccc2)c1C(=O)Nc1nc(-c2cc(F)ccc2F)cs1,-11%
C/C(=N\NC(=O)c1cccs1)C(C)(C)C,-14%
O=C1C(c2ccc(F)cc2)N(Cc2ccc3c(c2)OCO3)C(=O)CN1C1CCCCCC1 (stereo not drawn),-3%
O=S(=O)(c1cccc2cccnc12)N1CCN(c2ccccc2)CC1,-19%
COc1cc(C(c2c(C)[nH][nH]c2=O)c2c(C)[nH][nH]c2=O)ccc1OC(=O)c1cccc([N+](=O)[O-])c1,3%
Cn1cccc1Cc1nnc(SCC(=O)N2CCCc3ccccc32)n1-c1ccc(F)cc1,-3%
CC(C)CN(CC(C)C)S(=O)(=O)N1CCC(C(=O)NCc2cccs2)CC1,-8%
COC(=O)CCC(=O)NC(=S)Nc1cc(Cl)ccc1Cl,-25%
CC(Sc1nncn1C)C(=O)Nc1ccc(Cl)cn1 (stereo not drawn),-15%
S=C([S-])NCCNC(=S)[S-].[Zn+2],10µM*
Cn1c(=O)[nH]c(=O)c2c1nc(Br)n2CCC(=O)c1ccccc1,-9%
CC1CC2=C(C(=O)O1)C(c1ccc(Cl)cc1)Nc1ccccc1N2 (stereo not drawn),-6%
COc1ccc(OCC(O)Cn2c(Nc3cccc(C)c3)nc3c2c(=O)n(C)c(=O)n3C)cc1 (stereo not drawn),-23%
COc1ccc(CCNC(=O)CN2CCOc3ccccc32)cc1OC,-7%
CC(C)c1ccc(/C=N/NC(=O)CN(c2cccc(Cl)c2Cl)S(C)(=O)=O)cc1,-25%
O=C1S/C(=C\c2ccc(N3CCOCC3)o2)C(=O)N1Cc1c(F)cccc1Cl,u
Cc1ccc(NC(=O)CC2CS(=O)(=O)CC2CC(=O)Nc2ccc(C)c(C)c2)cc1C (stereo not drawn),-5%
O=C(CSc1ncnc2c1oc1ccccc12)Nc1cccc(C(F)(F)F)c1,u
COC(=O)C1=C(C(=O)OC)[C@@H]2N(C)c3ccccc3[C@@]23C[C@@H](CO)N(C(=O)c2ccco2)C3=N1,5%
CCOC(=O)c1c(NC(=S)NC(C)=O)sc(C)c1C,-5%
CNC(=O)/C=C1\NC(C)(C)Cc2c1ccc1ccccc21,-19%
CN(CC(=O)Nc1ccc(F)c(F)c1F)C1CCCCC1,-6%
O=C(O)CCC(=O)N1CCc2cc(S(=O)(=O)N3CCN(c4ccc(F)cc4)CC3)ccc21,-11%
COc1ccc(C)cc1NC(=O)CSc1nnc(-c2ccco2)n1N,-5%
C/C=C(\C)c1nnc(NC(=O)C(C)C)s1,-3%
COc1ccc2c(c1)O[C@@H](c1ccc3c(c1)OCO3)[C@H](OC(=O)N[C@H](C)C1CCCCC1)C2=O,-2%
CN(CCO)c1ccc([N+](=O)[O-])cc1C(=O)O,-20%

Six of the entries above in order of their number in HPGD inh, largest number first:
Structure,HPGD inh
COC(=O)C1=C(C(=O)OC)[C@@H]2N(C)c3ccccc3[C@@]23C[C@@H](CO)N(C(=O)c2ccco2)C3=N1,5%
CC1CC2=C(C(=O)O1)C(c1ccc(Cl)cc1)Nc1ccccc1N2 (stereo not drawn),-6%
O=C(O)CCC(=O)N1CCc2cc(S(=O)(=O)N3CCN(c4ccc(F)cc4)CC3)ccc21,-11%
CNC(=O)/C=C1\NC(C)(C)Cc2c1ccc1ccccc21,-19%
COc1ccc(OCC(O)Cn2c(Nc3cccc(C)c3)nc3c2c(=O)n(C)c(=O)n3C)cc1 (stereo not drawn),-23%
CC(C)c1ccc(/C=N/NC(=O)CN(c2cccc(Cl)c2Cl)S(C)(=O)=O)cc1,-25%

Remaining list, next part:
Structure,HPGD inh
CCOn1c(SCC)nc2ccccc2c1=O,-28%
COc1ccc(NS(=O)(=O)c2cc(C)ccc2NC(=O)c2cc(C)oc2C)cc1,-18%
Cc1ccc(N(CC(=O)Nc2ccc(F)cc2)S(=O)(=O)N2CCCC2)cc1,-6%
O=C(COc1ccc2c3c(c(=O)oc2c1)CCC3)c1ccc2c(c1)OCO2,u
COc1cc(C2c3c(-c4cc(Cl)c(C)cc4O)n[nH]c3C(=O)N2Cc2cccnc2)ccc1O (stereo not drawn),3%
O=S(=O)(NCc1ccccc1)c1ccc(S(=O)(=O)N2CCCCC2)cc1,-8%
CCOC(=O)C1CCN(C(=O)c2ccccc2N(C)S(C)(=O)=O)CC1,-6%
COc1ccc(N2CCN(c3ccc([N+](=O)[O-])cc3Cl)CC2)cc1,-1%
CCN(CC)S(=O)(=O)c1cccc(C(=O)N/N=C/c2cc(OC)c(O)c(OC)c2)c1,-10%
C#CCOC(=O)c1ccccc1C(=O)OCC#C,-17%
Nc1[nH]ncc1N=Nc1ccc(Cl)cc1,-21%
COc1ccc(NC(=O)CSc2nc3ccccc3c(=O)n2CCNC(C)=O)cc1,-1%
NC(=O)CCc1c[nH]c2ccccc12,-13%
Cc1ccc(-n2nnnc2SCC(=O)N2CCCCC2)cc1,-4%
O=C(CCN1CCOCC1)Nc1ccccc1,-3%
O=C(Oc1ccc2c3c(c(=O)oc2c1)CCCC3)c1cccs1,u
Cc1ccc(C2CC(=O)NC(SCC(=O)OCc3ccccc3)=C2C#N)o1 (stereo not drawn),-26%
O=c1oc2cc(O)ccc2cc1-c1ccc(F)cc1,u
O=C(Nc1ccc(N2CCOCC2)c(Cl)c1)c1c(F)c(F)c(F)c(F)c1F,-23%
Cc1cc(C(=O)CSc2nnc(-c3cccnc3)n2-c2ccccc2)c(C)n1CC1CCCO1 (stereo not drawn),1%
COc1ccccc1-c1ccc(NC2CCCC2)nn1,6.3µM*
COc1ccc(C(=O)Oc2ccc(C(=S)N3CCCC3)cc2)cc1OC,-10%
CCCCN(C)C(=O)c1coc(=O)c2ccccc12,22µM*
CC(C)Cn1c(-c2ccco2)n[nH]c1=S,u
C=CCn1c(SCCCCCC)nc(O)cc1=O,-12%
COc1ccc(-c2nsc(SCC(=O)Nc3ccc4c(c3)OCO4)n2)cc1,-17%
Cc1ccccc1NC(=O)Nc1cccs1,-17%
Cc1csc(Sc2ccc([N+](=O)[O-])cc2C(=O)OCC(=O)NC2CCCC(C)C2C)n1 (stereo not drawn),-17%
Cc1ccccc1OCCC(=O)Nc1cccc(S(=O)(=O)Nc2ccccc2Cl)c1,-4%
CN(C)c1nc(SCc2ccccc2)nc(N2CCOCC2)n1,-6%
CC1(C)CC(=O)C=C(NCC(=O)O)C1,-3%
CC1=C(C)[N+](=O)C2(O)CCCCC2(C)N1[O-] (stereo not drawn),-14%
CCOc1ccc(C(c2c(C)[nH][nH]c2=O)c2c(C)[nH][nH]c2=O)cc1OCC,-7%
CC(C)CC(COCc1cccc(Cl)c1)N1CCN(C(=O)c2cccc(C(F)(F)F)c2)CCC1=O (stereo not drawn),-18%
COc1cc2c(cc1OC)C(c1ccncc1)CC(=O)N2 (stereo not drawn),-20%
O=S(=O)(/C=C/c1ccccc1)N1CCN(c2ccc(F)cc2)CC1,-3%
O=S1(=O)CCN2C=C(Br)C=C(Br)C2=N1,u
CCn1c(CC(=O)Nc2cccc(Cl)c2Cl)nnc1SCCOc1ccc(OC)cc1,-5%
COc1ccc2c(c1)C(=O)[C@@H](OC(=O)NS(=O)(=O)c1ccc(C)cc1)[C@H](c1ccc(OC)c(Br)c1)O2,-3%
Cc1nc(SC(C(=O)c2ccccc2)c2ccccc2)nc2ccccc12 (stereo not drawn),-5%
COC(=O)c1cc(NS(=O)(=O)c2ccc(OC)c(OC)c2)ccc1Cl,-8%
CC(C)n1c(NCc2ccc(N(C)C)cc2)nc2ccccc21,-8%
Cc1ccc(-c2cc(C(F)F)n3ncc(C(=O)NCc4ccco4)c3n2)cc1,-22%
Cc1cc(/C=N/n2cnnc2)c(C)n1-c1ccc2c(c1)OCO2,-11%
CCOC(=O)C1=C(C)N=C2SC(C(=O)OC)=CC(=O)N2C1c1cc(OC)c(OC)c(OC)c1 (stereo not drawn),-12%
COc1ccc(CCN2C(=O)CC(N3CCN(S(=O)(=O)c4ccccc4)CC3)C2=O)cc1 (stereo not drawn),6%
CC(C)CNC(=O)C1CC(=O)OC12CCCCC2 (stereo not drawn),-6%
COC(=O)c1c(N)c(C#N)c2n1CCCCC2,-2%
COc1cccc(/C=N/NC(=O)CCCC(=O)Nc2ccc(Br)cc2)c1,-5%
CC1(C)Cc2c(sc3ncn4nc(CCC(=O)O)c(=O)nc4c23)CO1,u
CCCCCc1nc2ccccc2c(=O)n1N,-7%
C/C(=C\C(=O)c1ccc(C)cc1)Nc1cccc(O)c1,-12%
COc1ccc(-c2cc(C(=O)Nc3cccc(C(C)=O)c3)no2)cc1,-19%
CCc1cc(-c2n[nH]c(C)c2Oc2ccc(C(C)C)cc2)c(O)cc1O,u
CCCS(=O)(=O)N1CCCC(C(=O)N2CCN(c3ccccn3)CC2)C1 (stereo not drawn),u
C=CCn1c(SCC(=O)N2CCc3ccccc3C2)nc2ccccc2c1=O,-27%
O=C(NCCCN1CCCC1=O)c1cc(=O)c2ccccc2o1,-11%
Cc1cccc2c(CC(=O)Nc3ccccc3)noc12,-17%
CCCOc1ccc(-c2nnc(-c3cccs3)o2)cc1,u
COc1ccc(CC(=O)Nc2ccc(S(=O)(=O)Nc3nccc(C)n3)cc2)cc1,-14%

Next section
Structure,HPGD inh
COc1ccc(C(=O)N2CCc3cc(OC)c(OC)cc3C2)cc1OC,-11%
Cc1cc2c(N)cccc2nn1,-23%
Cc1ccc(C)c2nc(SCC(=O)NCc3cccs3)c(C#N)cc12,u
COc1ccc(CN(Cc2nc3ccccc3c(=O)[nH]2)C(=O)C(C)(C)C)cc1,1%
CC(C)(C)NC(=O)COC(=O)c1nsc(Cl)c1Cl,-7%
CC1(C)CC(NC(=O)C2CCCCC2C(=O)O)CC(C)(C)N1 (stereo not drawn),-3%

3 compounds picked at random from those above:
Structure,HPGD inh
COc1ccc(-c2cc(C(=O)Nc3cccc(C(C)=O)c3)no2)cc1,-19%
COc1ccc(NC(=O)CSc2nc3ccccc3c(=O)n2CCNC(C)=O)cc1,-1%
CC(C)CC(=O)NC(=S)N(Cc1ccccc1)Cc1ccccc1,-5%

This is a subset. The share of hits here may be higher or lower than overall.
